GALR2 agonist: GALR2 receptor agonists, primary screen, cell-based | GALR2-expressing cells, agonist activation read-out | actives 0.48% (n = 140,000) | Galanin receptor type 2 (Homo sapiens), O43603 | activation, %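 (tested at 5 µM)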;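 active means above mean plus 3 SD of all compounds, about 5% in these data, not always enough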;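 further: 0% = vehicle buffer wells and 100% = reference agonist at full effect; tested in CHO reporter cells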
Target sequence (O43603 whole entry, looked up): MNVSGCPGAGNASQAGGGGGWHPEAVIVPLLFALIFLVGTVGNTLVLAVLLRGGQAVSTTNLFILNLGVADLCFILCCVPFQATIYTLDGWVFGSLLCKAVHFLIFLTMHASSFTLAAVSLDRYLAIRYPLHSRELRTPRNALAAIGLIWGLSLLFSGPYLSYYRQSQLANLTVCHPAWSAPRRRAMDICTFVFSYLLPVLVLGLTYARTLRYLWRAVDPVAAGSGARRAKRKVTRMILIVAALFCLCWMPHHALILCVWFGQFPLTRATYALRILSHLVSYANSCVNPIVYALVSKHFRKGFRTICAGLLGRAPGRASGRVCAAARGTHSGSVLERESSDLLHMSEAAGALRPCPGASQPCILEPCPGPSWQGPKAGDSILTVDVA
RGS16-Gao HTS: modulators of RGS16 binding to Galphao, primary screen, biochemical, human proteins, multiplexed bead flow cytometry; Regulator of G-protein signaling 16 (Homo sapiens) + Guanine nucleotide-binding protein …; actives 0.38% (n = 220,000); bead-based flow cytometry RGS16-Galphao binding, fluorescence; actives lie on both sides; AID 1441, 2008; binding response (% of control), % at 10 µM;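 active means below 25% or above 175%, edge rows of some plates excepted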;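 further: Galphao activated by GDP with aluminum fluoride before binding; 100% = wells without compound and 0% = beads without RGS; some results beyond the cut were filed as inactive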
Target sequence (O15492 whole entry, looked up): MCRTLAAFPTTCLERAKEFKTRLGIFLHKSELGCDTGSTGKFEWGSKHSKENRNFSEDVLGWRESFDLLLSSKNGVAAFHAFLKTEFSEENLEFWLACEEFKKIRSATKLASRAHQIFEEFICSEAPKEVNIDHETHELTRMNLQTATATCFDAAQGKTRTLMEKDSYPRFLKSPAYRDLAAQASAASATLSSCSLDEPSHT
Target sequence (P09471 whole entry, looked up): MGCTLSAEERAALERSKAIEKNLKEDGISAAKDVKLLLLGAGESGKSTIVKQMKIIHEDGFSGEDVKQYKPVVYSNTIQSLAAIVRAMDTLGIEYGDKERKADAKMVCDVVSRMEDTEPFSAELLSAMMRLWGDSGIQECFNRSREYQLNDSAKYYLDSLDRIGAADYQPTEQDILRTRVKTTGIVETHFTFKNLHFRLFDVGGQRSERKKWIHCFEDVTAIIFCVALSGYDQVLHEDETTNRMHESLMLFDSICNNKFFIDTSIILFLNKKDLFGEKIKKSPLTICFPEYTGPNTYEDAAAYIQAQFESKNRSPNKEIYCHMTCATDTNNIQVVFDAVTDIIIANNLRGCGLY
HSV augment: enhancers of HSV replication in host cells, fold increase, host cell viability. HSV replication augmentation in cells. maximum fold increase. actives 0.005% (n = 220,000);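 active means peak rise of 1.5-fold or more in the series; tested in PC3 cells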;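 further: first round at 10 µM; read as green reporter fluorescence; hits show the peak of a series up to 25 µM; 1 = signal of infected wells without compound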
PKD1 inh: inhibitors of human PKD1 kinase, biochemical, fluorescence polarization | Serine/threonine-protein kinase D1 (Homo sapiens), Q15139 | PKD1 kinase fluorescence polarization assay | inhibition, %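 (about 10 µM by stock and volumes)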 | actives 0.056% (n = 200,000) | AID 797, 2007;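 active means inhibition of 50% or more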;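 further: controls were vehicle for no effect and a reference inhibitor for full effect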
Insulin prom inh: inhibitors of insulin promoter-driven GFP, primary screen, imaging, TRM-6 cells (human fetal islet line), eGFP reporter, cell count; reporter expression induced with tamoxifen; actives 0.9% (n = 130,000); inhibition, % at 2 µM; AID 1273, 2008;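 active means inhibition above the mean plus 3 SD, with well images judged a real hit on visual review, cut at about 60% in these data, passing the limit was not always enough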
Insulin prom inh cell count: recorded beside Insulin prom inh, whose call it bears; normalized cell count, %; measured here: cell count, toxicity; reference of the scale not given here;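 cells exposed to compound for 48 h; stained nuclei by imaging scaled within each plate; lower means fewer cells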
HSV augment primary fold: recorded beside HSV augment, whose call it bears; fold increase; compound at 10 µM; measured here: primary screen fold increase 10 uM; tested in PC3 cells;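 GFP signal in the first replicate; 1 = infected wells without compound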
The depositor's hits bear a star; i = inactive; . = not tested or not shown. Outcome played no part in choosing rows. Share with any hit: about 1.3%.

SMILES	GALR2 agonist	RGS16-Gao HTS	HSV augment	HSV augment primary fold	PKD1 inh	Insulin prom inh	Insulin prom inh cell count
Cc1cc(=O)oc2cc(OCC(=O)OCC(=O)NCc3ccc4c(c3)OCO4)ccc12	-0.8	105	i	0.88	-15	.	.
c1ccc(CN2CCN(c3ncnc4nc[nH]c34)CC2)cc1	-1.4	102	i	0.97	-8	.	.
CN(c1ccc(OCC(=O)NC2=NCCS2)cc1)S(=O)(=O)c1ccc(F)cc1	.	99	i	1.2	.	.	.
CC(=O)C1=C(C)Nc2cc(C(F)(F)F)ccc2S1	-3.9	90	i	0.92	-16	0	117
O=C(C=C=Nc1ccccc1)C(=O)N=C=Cc1ccccc1	.	102	i	0.63	.	.	.
O=C(Nc1ccc(CN2CCCCC2)cc1)Nc1ccccc1Cl	.	89	i	0.81	-2	.	.
COc1ccc(N2CCN(C(=O)c3c(C)nn(-c4ccccc4)c3C)CC2)cc1	-0.9	46	i	0.91	0	-8	116
O=S(=O)(c1ccc(F)cc1)N1CCN(C(=S)NC2CCCC2)CC1	-1.2	13	i	0.84	-13	11	77
CS(=O)(=O)n1nc(OC(=O)c2cccs2)cc1N	.	117	i	1.2	-1	.	.
CCCCOc1ccc(C(=O)NCCc2cccs2)cc1	.	102	i	0.95	-2	.	.
COC(=O)c1scc2c(Oc3ccccc3)cc(C(F)(F)F)nc12	.	103	i	1.2	.	.	.
O=C(CN(Cc1ccco1)C(=O)CNS(=O)(=O)c1ccccc1)NCc1ccc(F)cc1	-1.2	101	i	0.98	-8	.	.
COc1ccc(CSCC(=O)N/N=C/c2ccc(OCC(=O)N3CCCCC3)cc2)cc1	-1.2	102	i	0.92	2	0	85
CCOc1ccc(N(C(=O)C2CCCO2)C2C=CS(=O)(=O)C2)cc1 (centres undefined)	.	110	i	0.95	7	-52	76
OCCn1c(-c2ccccc2)csc1=Nc1ccccc1	-1.6	70	i	1	9	14	144
COc1ccc(NC(=O)Nc2ccc3oc(C)nc3c2)cc1	.	102	i	0.99	-3	6	154
Cc1ccc(C(=O)Nc2ccc3nc(C)sc3c2)s1	2.3	113	i	0.84	1	i	46
Cc1sc(NC(=O)c2ccco2)c(C(c2ccncc2)N2CCOCC2)c1C (centres undefined)	-0.2	102	i	0.87	1	42	198
CN(C)c1ccc(P(=O)(OCc2ccccc2)C(O)c2cccnc2)cc1 (centres undefined)	-1.4	98	i	0.95	2	17	174
C=CCOC(=O)C1=C(C)Nc2ncnn2C1c1cccs1 (centres undefined)	-3.6	88	i	0.8	-11	-50	88
COC(=O)c1sc(NC(=O)c2ccoc2C)nc1C	-0.3	112	i	0.94	-10	-19	125
COc1ccc(CNC(=O)c2csc(Cc3ccc(OC)cc3)n2)cc1	-2.1	107	i	1.1	-8	17	96
COc1ccc(OCC(O)Cn2c(Br)nc3c2c(=O)[nH]c(=O)n3C)cc1 (centres undefined)	-0.3	100	i	0.79	-3	10	139
CC(=O)Nc1ccc(NC(=O)c2ccc(NS(=O)(=O)c3cc(C(C)(C)C)ccc3C)cc2)cc1	.	100	i	0.97	3	.	.
COc1ccc(NC(=O)C(NC(=O)CNC(C)=O)c2ccc(C)cc2)cc1 (centres undefined)	0.4	114	i	0.88	4	-12	127
CC(/C=N/Nc1ccc2nncn2n1)=C\c1ccccc1	.	99	i	1	.	.	.
COc1ccc(NC(=O)C2CC(=O)N(c3cccc(C)c3C)C2)cc1 (centres undefined)	-3.1	101	i	0.93	-2	0	85
CCCC(=O)n1nc(-c2ccco2)nc1N	-1.5	103	i	0.97	-4	-29	112
O=[N+]([O-])c1ccc(S(=O)(=O)NCC(c2cccnc2)N2CCOCC2)cc1 (centres undefined)	.	108	i	1.1	2	-50	47
CCCC(=O)Nc1cccc(S(=O)(=O)N(C)c2ccccc2)c1	-0.9	102	i	0.91	-5	-55	93
C/C(=C\C(=O)c1ccc(Br)cc1)NCc1ccc(C)cc1	-2.5	105	i	1.2	1	-22	165
C=CCn1c(N)c(C(=O)NCC2CCCO2)c2nc3ccccc3nc21 (centres undefined)	5.3	100	i	0.76	-8	.	.
O=C1/C(=C/c2ccc([N+](=O)[O-])cc2)C=C(c2ccccc2)N1c1ccccc1	-2.1	102	i	1.2	4	-67	117
Cc1ccc(C(=O)COC(=O)CCCC(=O)NC2CCCCC2)cc1[N+](=O)[O-]	-0.6	94	i	0.89	-2	-27	97
Cc1ccccc1Nc1nc(Cl)c(C=O)s1	.	99	i	0.95	-5	.	.
CC(C)(C)C(=O)O/N=C1/C(=O)N(c2ccccc2)c2ccccc21	-3.6	95	i	0.96	-6	.	.
COc1ccc(CNC(=O)CSCc2cnn(-c3ccccc3)c2-n2cccc2)cc1	-5.5	112	i	1.4	-4	4	128
COc1ccc(-n2c(Cc3cc(=O)[nH]c(=O)[nH]3)nnc2SCc2ccccc2)cc1	-2.1	105	i	1.2	-4	.	.
Cc1ccc(C)n1NC(=O)c1ccccc1Cl	1.2	101	i	1	-1	-15	59
Cc1nc([N+](=O)[O-])cn1-c1ccc(N)cc1	-1.0	95	i	0.87	-6	.	.
O=C(Cn1cnc2cc([N+](=O)[O-])ccc2c1=O)NCc1ccccc1	.	98	i	1.1	3	.	.
COc1cc2c(cc1OC)CN(CC(=O)Nc1ccc(C#N)cc1)CC2	-0.2	94	i	1	-2	-18	142
CCCCn1c(=O)c(C(=O)OCC)c(O)c2ccccc21	-0.4	93	i	0.76	3	.	.
O=C(NNCC(O)COc1ccccc1)c1ccccc1 (centres undefined)	0.2	90	i	0.98	-3	-6	115
Cc1nn(C(=O)c2cccnc2)c(C)c1C	-2.6	35	i	0.8	5	.	.
COC(=O)c1cn(C(=O)OC)c2ccccc12	-2.3	104	i	0.94	-6	-226	61
O=C(NC1CCCCC1)NC1CC2CCCC(C1)N2C1CCCC1 (centres undefined)	-2.7	97	i	1.1	-1	3	201
CN(C)CCOc1ccccc1C(C)(C)C	-2.0	99	i	1	-1	43	105
Cc1nnc(NC(=O)Nc2cccc(Cl)c2)s1	-3.5	106	i	0.9	8	-110	138
Cc1ccc2nsnc2c1NC(=O)c1ccccc1[N+](=O)[O-]	-2.0	108	.	.	-3	-15	115
O=C(O)c1ccc(NS(=O)(=O)c2cc(C(=O)O)ccc2Br)cc1	-0.6	100	i	1.1	8	0	132
CCOC(=O)COc1cc(OCC(=O)OCC)c2c(=O)cc(-c3ccccc3)oc2c1	-0.9	107	i	0.96	10	-10	105
COc1cc(NS(=O)(=O)c2ccc(NC(=S)NC(=O)c3ccco3)cc2)nc(OC)n1	.	99	i	0.98	.	.	.
O=C(NCc1ccccc1Cl)C1CCCN(S(=O)(=O)c2cnc[nH]2)C1 (centres undefined)	0.3	30	i	0.91	7	.	.
CNS(=O)(=O)c1cc(C(=O)OCC(=O)NC2CCCc3ccccc32)ccc1Cl (centres undefined)	-0.3	107	i	0.86	-9	2	98
Cc1cccc(Cl)c1NC(=O)N1CCCN(c2ncccc2[N+](=O)[O-])CC1	.	104	i	1.2	.	.	.
CC(C)NS(=O)(=O)c1ccc(OCC(=O)N2CCN(c3ccccc3)CC2)cc1	.	69	i	0.97	-1	.	.
Cc1ccc(C)c(NC(=O)C(c2ccccc2)N2CCOCC2)c1 (centres undefined)	.	102	i	0.96	-2	.	.
COC(=O)c1ccc(COc2ncnc3sccc23)cc1	.	96	i	0.96	2	.	.
Cc1onc(-c2c(F)cccc2Cl)c1C(=O)Nc1nnc(C2CC2)s1	-0.5	96	i	1.1	-8	.	.

(cont.)
SMILES	GALR2 agonist	RGS16-Gao HTS	HSV augment	HSV augment primary fold	PKD1 inh	Insulin prom inh	Insulin prom inh cell count
Cc1ccc(N=Nc2c(C)[nH]n(-c3ccccc3)c2=O)cc1	.	102	i	0.95	0	.	.
CCOC(=O)CSc1n[nH]c(-c2ccco2)n1	-3.1	104	i	1	-4	.	.
Cc1ccc(/C=N/NC(=O)CSc2nnc(-c3ccccc3)n2-c2ccc(Cl)cc2)o1	-1.1	111	i	1.1	-2	-9	73
BrC(/C=N/N1CCN(Cc2ccccc2)CC1)=C/c1ccccc1	.	93	i	0.93	.	.	.
O=C(CN1C(=O)COc2ccccc21)N1CCN(c2ccccc2F)CC1	-0.5	104	i	0.92	10	-6	91
CC(C(=O)Nc1cccnc1)n1cc([N+](=O)[O-])cn1 (centres undefined)	.	101	i	0.84	-1	.	.
CCCCOc1ccc(CN2CCC(O)CC2)cc1	1.1	99	i	1.2	-8	64	158
COCCn1c(=O)[nH]c2cc(C(=O)NCC3CCCO3)ccc2c1=O (centres undefined)	-2.1	104	i	0.89	-2	.	.
CCN(CC)S(=O)(=O)c1ccccc1/C=N\O	-2.1	88	i	1	-4	-14	84
O=C1c2ccccc2C(=O)N1CCc1csc(-c2cccc(Cl)c2)n1	-4.0	94	i	0.99	-8	-117	144
NC(=O)[C@@H]1CCCNc2c(F)cc([N+](=O)[O-])cc2C(=O)N[C@@H](CCC(=O)O)C(=O)N[C@@H](CO)C(=O)N1	-1.1	106	i	1.1	-8	18	81
Cc1nc2ccccn2c1C(=O)NNC(=S)Nc1ccccc1	.	100	i	1	.	.	.

The closing 7 entries of the part above are carried over, then new ones follow.
SMILES	GALR2 agonist	RGS16-Gao HTS	HSV augment	HSV augment primary fold	PKD1 inh	Insulin prom inh	Insulin prom inh cell count
CC(C(=O)Nc1cccnc1)n1cc([N+](=O)[O-])cn1 (centres undefined)	.	101	i	0.84	-1	.	.
CCCCOc1ccc(CN2CCC(O)CC2)cc1	1.1	99	i	1.2	-8	64	158
COCCn1c(=O)[nH]c2cc(C(=O)NCC3CCCO3)ccc2c1=O (centres undefined)	-2.1	104	i	0.89	-2	.	.
CCN(CC)S(=O)(=O)c1ccccc1/C=N\O	-2.1	88	i	1	-4	-14	84
O=C1c2ccccc2C(=O)N1CCc1csc(-c2cccc(Cl)c2)n1	-4.0	94	i	0.99	-8	-117	144
NC(=O)[C@@H]1CCCNc2c(F)cc([N+](=O)[O-])cc2C(=O)N[C@@H](CCC(=O)O)C(=O)N[C@@H](CO)C(=O)N1	-1.1	106	i	1.1	-8	18	81
Cc1nc2ccccn2c1C(=O)NNC(=S)Nc1ccccc1	.	100	i	1	.	.	.
O=C(CSc1nnc(CCCOc2ccc(Cl)cc2Cl)o1)Nc1ccc(C(=O)O)cc1	-1.1	107	i	0.93	-6	-4	103
Cc1cc(C(=O)CN2C(=O)NC(C)(c3ccccc3)C2=O)c(C)n1CC1CCCO1 (centres undefined)	0.2	100	i	0.96	-3	.	.
CCn1c(SCC(=O)c2cc(C)ccc2C)nc2cc(S(=O)(=O)N3CCOCC3)ccc21	-0.5	70	i	1.1	-4	-23	126
COCC(C)NC(=O)CSc1nc(-c2ccccc2)c(-c2ccccc2)o1 (centres undefined)	-2.9	105	i	0.91	8	4	113
CCOC(=O)/C=C1\SCC(=O)N1CC(=O)NC(C)C	-0.7	104	.	.	0	55	84
CCCCC(CC)CNC(=O)CCCCn1c(=O)[nH]c2ccsc2c1=O (centres undefined)	.	103	i	0.96	-3	9	90
Cc1cccc(NC(=S)N2CCN(Cc3ccccc3)CC2)c1C	-0.3	130	i	1.2	-14	.	.
Cc1ccc(NC(=O)CNc2ccc(N3CCOCC3)cc2)cc1S(=O)(=O)N(C)C	.	103	i	0.9	5	.	.
FC(F)(F)c1cnc(-c2cnc(-c3ccncc3)nc2)c(Cl)c1	.	94	i	1.1	4	27	85
Nc1nncn1C(=O)CCCOc1ccccc1	-1.4	88	i	0.97	-5	-22	157
NC(=O)Cc1ccc(C(=O)c2ccccc2F)s1	.	113	i	1.1	-5	.	.
O=C(O)c1c2c(nc3ccccc13)/C(=C/c1ccc(O)cc1)CC2	.	104	i	0.97	-10	.	.
O=C(COc1ccccc1[N+](=O)[O-])NC1CC1	.	99	i	0.97	-6	.	.
COC(=O)/C(=C/c1ccco1)NC(=O)c1ccc(Br)o1	.	93	i	0.86	-6	.	.
Cc1occc1-c1nnc(SCCNCCO)o1	.	110	i	1	-8	.	.
Cc1ccc(CNC(=O)/C=C/c2ccccc2Cl)cc1	-1.8	103	i	1	-11	7	36
O=C(COC(=O)CC1CCCC1)Nc1cc2c(cc1Cl)C(=O)c1ccccc1C2=O	-0.1	-243	i	0.79	1	-13	110
CC(=O)NCC(=O)OCC(=O)c1ccc(Br)cc1	0.5	96	i	0.91	-6	19	128
